# Bioassay records from PubChem.
# HSV augment = enhancers of HSV replication in host cells, fold increase, host cell viability; HSV replication augmentation in cells; maximum fold increase; 220,000 compounds, 0.005% hits;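 active = peak rise of 1.5-fold or more in the series; tested in PC3 cells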;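 note: first round at 10 µM; read as green reporter fluorescence; hits show the peak of a series up to 25 µM; 1 = signal of infected wells without compound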
# RGS16-Gao HTS = modulators of RGS16 binding to Galphao, primary screen, biochemical, human proteins, multiplexed bead flow cytometry; Regulator of G-protein signaling 16 (Homo sapiens) + Guanine nucleotide-binding protein …; 220,000 compounds, 0.38% hits; AID 1441, 2008; binding response (% of control), % at 10 µM; bead-based flow cytometry RGS16-Galphao binding, fluorescence; actives lie on both sides;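 active = below 25% or above 175%, edge rows of some plates excepted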;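 note: Galphao activated by GDP with aluminum fluoride before binding; 100% = wells without compound and 0% = beads without RGS; some results beyond the cut were filed as inactive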
# Target sequence (O15492 whole entry, looked up): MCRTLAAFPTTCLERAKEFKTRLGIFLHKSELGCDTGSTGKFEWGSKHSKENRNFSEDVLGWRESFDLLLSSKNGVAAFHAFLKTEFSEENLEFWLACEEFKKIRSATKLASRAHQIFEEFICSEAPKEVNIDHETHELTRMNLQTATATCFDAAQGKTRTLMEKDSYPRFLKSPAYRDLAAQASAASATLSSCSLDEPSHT
# Target sequence (P09471 whole entry, looked up): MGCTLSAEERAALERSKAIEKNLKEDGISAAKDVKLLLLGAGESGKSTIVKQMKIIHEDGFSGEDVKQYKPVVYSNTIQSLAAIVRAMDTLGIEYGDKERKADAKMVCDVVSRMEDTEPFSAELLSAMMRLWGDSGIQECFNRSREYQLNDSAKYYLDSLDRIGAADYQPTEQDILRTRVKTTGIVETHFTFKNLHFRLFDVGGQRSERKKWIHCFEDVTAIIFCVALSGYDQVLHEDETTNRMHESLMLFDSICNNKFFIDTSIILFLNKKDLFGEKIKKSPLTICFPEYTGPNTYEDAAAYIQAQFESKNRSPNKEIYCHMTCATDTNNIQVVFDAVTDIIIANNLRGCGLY
# INS promoter inh = inhibitors of insulin promoter-driven GFP, primary screen, imaging, TRM-6 cells (human fetal islet line), eGFP reporter, cell count; 130,000 compounds, 0.9% hits; reporter expression induced with tamoxifen; inhibition, % at 2 µM;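 active = inhibition above the mean plus 3 SD, with well images judged a real hit on visual review, cut at about 60% in these data, passing the limit was not always enough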
# PKD1 inh = inhibitors of human PKD1 kinase, biochemical, fluorescence polarization. Serine/threonine-protein kinase D1 (Homo sapiens), Q15139. PKD1 kinase fluorescence polarization assay. inhibition, %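 (about 10 µM by stock and volumes)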. 200,000 compounds, 0.056% hits. AID 797, 2007;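 active = inhibition of 50% or more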;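 note: controls were vehicle for no effect and a reference inhibitor for full effect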
# GALR2 agonist = GALR2 receptor agonists, primary screen, cell-based; 140,000 compounds, 0.48% hits; GALR2-expressing cells, agonist activation read-out; activation, %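 (tested at 5 µM)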;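 active = above mean plus 3 SD of all compounds, about 5% in these data, not always enough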;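 note: 0% = vehicle buffer wells and 100% = reference agonist at full effect; tested in CHO reporter cells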
# Target sequence (O43603 whole entry, looked up): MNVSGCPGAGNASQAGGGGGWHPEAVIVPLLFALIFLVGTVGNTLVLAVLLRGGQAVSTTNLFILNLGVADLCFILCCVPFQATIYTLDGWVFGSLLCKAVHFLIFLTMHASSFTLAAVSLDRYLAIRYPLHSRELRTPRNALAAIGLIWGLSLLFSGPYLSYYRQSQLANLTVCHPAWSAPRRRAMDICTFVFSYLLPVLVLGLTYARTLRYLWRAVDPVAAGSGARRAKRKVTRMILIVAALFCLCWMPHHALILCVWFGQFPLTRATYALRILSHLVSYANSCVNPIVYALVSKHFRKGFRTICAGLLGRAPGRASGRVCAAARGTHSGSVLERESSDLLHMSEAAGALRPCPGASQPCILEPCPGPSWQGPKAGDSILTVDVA
# INS promoter inh cell count = second read-out of INS promoter inh, no call of its own (marks repeat the call); normalized cell count, %; measured here: cell count, toxicity; reference of the scale not given here;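 cells exposed to compound for 48 h; stained nuclei by imaging scaled within each plate; lower means fewer cells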
# HSV augment primary fold = further read-out of HSV augment, marked with its call; fold increase; compound at 10 µM; measured here: primary screen fold increase 10 uM; tested in PC3 cells;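 GFP signal in the first replicate; 1 = infected wells without compound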
# * marks the source's active call; other numbers are inactive results; i = inactive; . = no result given. Random draw from the library; any-hit rate near 1.3%.
SMILES,HSV augment,HSV augment primary fold,RGS16-Gao HTS,INS promoter inh,INS promoter inh cell count,PKD1 inh,GALR2 agonist
O=C(COc1ccccc1)NCC(=O)N/N=C/c1ccccc1,i,1.13,184.7,25.9,110.4,-13.9,-0.6
Cn1c(N)c(C(=O)COC(=O)CSc2ccc3ccccc3c2)c(=O)n(C)c1=O,.,.,96.0,30.8,157.3,-1.1,-2.2
CC(OC(=O)CCc1c[nH]c2ccccc12)C(=O)c1ccccc1 (centres undefined),i,1.3,102.5,.,.,4.1,.
CCn1c(=N)n(CCO)c2ccccc21,i,0.74,101.5,.,.,-8.8,-0.9
O=C(CN1CCN(S(=O)(=O)c2ccc(Br)cc2)CC1)N/N=C/c1ccc(Br)s1,i,1.05,108.4,-5.0,94.0,1.8,.
CCSCc1nnc(SCC(=O)Nc2cccc(C(C)=O)c2)n1C,i,1,103.1,15.0,56.6,1.2,.
CCCC(=O)N(c1ccc2oc(=O)sc2c1)S(=O)(=O)c1ccccc1,i,0.93,91.2,15.8,101.4,-1.6,0.3
CSc1cccc(NC(=O)c2cnccn2)c1,i,1.01,112.8,-62.9,126.2,4.4,-3.0
O=C(NCc1ccc2c(c1)OCO2)C1CCCN(S(=O)(=O)c2cccnc2)C1 (centres undefined),i,1.03,102.7,.,.,-12.8,-0.7
C/C(N)=C(/C#N)C(=O)CSc1ccc2c(c1)OCCO2,i,0.94,102.2,.,.,-3.5,-3.9
Fc1ccc(NC(=S)N2CCCCC2)cc1,i,0.91,107.5,38.9,76.6,-1.1,-0.9
Cc1ccc(NC(=O)COC(=O)Cc2ccsc2)c(C)c1,i,0.94,101.1,.,.,-3.1,.
O=C(CSc1ccc(Br)cc1)N1CCN(C(=O)c2ccco2)CC1,i,0.93,102.4,-60.0,111.1,-4.8,.
Cc1ccc(C(=O)N/C(=C\c2cccs2)C(=O)N2CCCCCC2)cc1,i,0.91,102.1,16.2,113.6,0.2,0.7
Cc1cccc(C)c1OCCCCCNCCO,i,0.85,105.2,51.6,65.8,4.6,-1.0
O=C(NC(=S)Nc1ccccc1F)c1ccc(Br)o1,i,1.08,90.2,-29.4,92.7,-3.5,.
Cc1cc(C)n(S(=O)(=O)c2ccccc2)n1,i,0.97,96.7,.,.,.,.
COc1ccc(C2C(Oc3ccccc3C)C(=O)N2Cc2ccc(F)cc2)cc1OC (centres undefined),i,1.06,101.8,-42.9,130.3,-9.0,-1.4
Cc1c(C(=O)OCC(=O)NCc2ccc3c(c2)OCO3)cccc1[N+](=O)[O-],i,0.96,102.7,6.7,93.0,-10.6,0.8
CC(C)CCNC(=O)CC1Nc2c3ccccc3nc(=S)n2C1=O (centres undefined),i,0.82,98.4,-5.6,137.4,6.6,-1.1
O=C(NC(=S)N(CCCCO)C1CCCCC1)c1sc2ccccc2c1Cl,i,0.95,82.6,.,.,-17.6,-0.4
CC1CCN(S(=O)(=O)c2ccc3c(c2)N(CC(=O)NCc2cccnc2)C(=O)CS3)CC1,i,1.09,44.9,-128.6,55.4,-6.5,-1.6
C#CCNC(=O)C1=C[C@H](c2cn(C(C)=O)c3ccccc23)[C@@H](CCCO)[C@H](OCC)O1,i,0.85,101.0,.,.,-1.4,.
COc1ccc2nc3sc(C(=O)N4CCN(C)CC4)cc3cc2c1,.,.,99.8,5.3,131.8,-5.8,1.7
CCc1ccc(CN(C)C(=O)c2cc(COc3c(F)cccc3F)on2)cc1,i,0.91,99.2,.,.,-0.8,.
Cc1cccc(C)c1NC(=S)N(Cc1ccccc1)Cc1cccs1,i,0.97,94.0,46.7,70.8,6.7,.
O=C(CSc1cccc[n+]1[O-])Nc1ccccc1Oc1ccccc1,i,0.93,70.8,.,.,-2.4,.
NC(=O)c1cc(-c2ccccc2)nc2ccc(Br)cc12,i,0.84,108.6,.,.,.,.
CCOC(=O)n1n[n+]([O-])c2ccccc21,i,1.04,101.9,.,.,3.0,-1.4
O=C(COC(=O)Cn1cnc2ccccc2c1=O)NCc1ccccc1Cl,i,0.91,101.0,.,.,-2.7,.
CCOc1ccccc1Nc1ncccc1C(=O)O,i,0.93,98.4,-1.8,101.6,-7.9,-2.1
O=C(CSc1nc(-c2ccccc2Cl)ns1)Nc1ccc2c(c1)OCO2,i,0.91,22.4,0.0,67.9,-9.7,-1.5
CC(O)c1ccc2c(c1)OCCOCCN(C)CCOCCO2 (centres undefined),i,0.96,99.5,.,.,-9.7,0.1
Cc1ccc(SCc2nn(C)c(Cl)c2C=O)cc1,i,0.98,105.6,13.3,92.1,5.9,.
O=C(N/N=C/c1ccccc1C(=O)O)C(=O)N1CCCCC1,i,1.09,105.9,7.0,89.4,1.3,.
NC(=O)c1ccsc1NC(=O)COC(=O)CSc1ccc(Cl)cc1,i,0.98,104.2,.,.,-0.9,.
O=C(COC(=O)CCCOc1ccc(Cl)cc1Cl)NCc1ccc(F)cc1,i,0.86,109.5,.,.,3.6,0.2
COCCNC(=O)CCCn1c(=O)c2cc(OC)c(OC)cc2n(CC(=O)Nc2ccccc2OC)c1=O,i,0.93,96.6,.,.,-4.0,.
O=C(CSc1nnc(-c2ccc3c(c2)OCO3)o1)Nc1ncc(Cl)cc1Cl,i,0.88,110.3,.,.,-5.3,-0.8
CC(Oc1ccccc1)C(=O)NNC(=O)c1cccs1 (centres undefined),i,0.91,116.1,.,.,-9.1,.
CCCS(=O)(=O)N1CCCC(C(=O)NC(C)c2ccc3c(c2)OCCO3)C1 (centres undefined),i,0.97,102.9,-44.8,87.7,-7.0,-2.2
Cc1ccc(NC(=O)c2sc3ccccc3c2Cl)nc1,i,1,109.2,-80.0,117.0,-4.0,-2.9
CN(c1ccccc1)S(=O)(=O)c1ccc(C(=O)OCC(=O)N2CCOCC2)cc1,i,0.98,100.8,-13.9,80.6,-3.2,0.1
Cc1cc(C)c(S(=O)(=O)c2ccccc2Cl)c(Cl)n1,i,1.01,66.2,-127.3,62.1,-2.4,.
Cc1sc2ncnc(OCC(=O)NC(C)C(C)C)c2c1C (centres undefined),i,1.03,93.0,.,.,-4.4,.
O=C(NCc1ccc2c(c1)OCO2)c1ccc(CS(=O)(=O)c2ccc(Br)cc2)o1,i,1.19,95.7,.,.,3.4,-2.6
O=C(N/N=C/c1ccccc1O)C1(O)c2ccccc2-c2ccccc21,i,0.91,94.0,-13.3,129.4,-0.2,-0.8
O=C1N(Cc2ccc3c(c2)OCO3)c2ccccc2C1(O)c1c[nH]c2ccccc12 (centres undefined),.,.,97.4,0.0,78.1,6.9,-2.3
COc1ccccc1N(CC(=O)NCCc1ccccc1)S(C)(=O)=O,i,0.98,105.6,.,.,-12.2,-1.1
O=C(NCCCN1CCOCC1)C1CC(=O)N(CCc2ccccc2)C1 (centres undefined),i,0.88,99.5,19.1,77.4,0.7,-2.7
Cc1ccc(NC(=O)C2CCCN(S(=O)(=O)c3cnc[nH]3)C2)cc1F (centres undefined),i,0.94,182.0,.,.,-1.5,-1.6
CN=C1c2cc3cc(OC)ccc3n2CCN1C,i,1.06,34.0,-204.8,79.5,1.2,-1.3
Cc1ccc(-c2[nH]ncc2/C=C(\C#N)C(=O)NC2CCCCC2)cc1,i,0.82,102.2,.,.,-4.2,0.6
Cc1ccc(NC(=O)CSc2cccc[n+]2[O-])c([N+](=O)[O-])c1,i,0.69,100.3,.,.,-4.6,.
Cc1c(-c2nc(N)nc(Nc3ccc(F)cc3)n2)oc2ccccc12,i,0.69,106.5,.,.,-1.2,0.3
CCCCCCCNC1=CC(=O)CC(c2ccco2)C1 (centres undefined),i,1.06,99.2,22.6,92.8,-4.7,-0.7
COc1ccccc1NC1=C(Cl)C(=O)OC1OC(=O)c1ccco1 (centres undefined),i,1.02,105.7,.,.,-1.3,.
CNC(=O)CN(c1ccc(C23CC4CC(CC(C4)C2)C3)cc1)S(C)(=O)=O,i,1.03,105.5,20.0,89.9,6.4,.
Cc1ccc(OCc2nc(-c3ccccn3)no2)c(Br)c1,i,0.89,101.1,11.1,92.8,-19.0,-2.3
CCN(CCn1cccn1)C(=O)CCc1nnc(CCc2ccccc2OC)o1,i,0.9,99.5,.,.,-6.7,.

# The list continues.
SMILES,HSV augment,HSV augment primary fold,RGS16-Gao HTS,INS promoter inh,INS promoter inh cell count,PKD1 inh,GALR2 agonist
CCn1ccnc1CN(C)C(=O)CC1C(=O)NCCN1Cc1c(F)cccc1Cl (centres undefined),i,0.93,94.9,.,.,-6.1,.
CCCC(=O)N/C(N)=N/c1nc(C)c2ccccc2n1,i,0.94,96.9,.,.,.,.
CCc1ccc(NC(=O)C2(C)Cc3ccccc3C(=O)O2)cc1 (centres undefined),i,1.24,89.3,.,.,-5.9,.
Cc1ccc(-c2cc(C(=O)Nc3nccs3)c3ccccc3n2)o1,i,0.91,99.1,-3.5,110.1,-0.7,-0.1
O=C1CCN(Cc2nc(-c3ccc(Cl)cc3)no2)CCN1,i,1.04,101.2,.,.,-4.9,.
Cc1cc(C(=O)COC(=O)c2ccc[nH]c2=O)c(C)n1C1CC1,i,1.03,98.8,-7.7,119.5,-1.6,-1.4
Nc1c(NCc2ccccc2)c(=O)c1=O,i,0.7,102.5,.,.,.,.

# 19 entries out of the list, sorted by count of non-hydrogen atoms, lowest first.
SMILES,HSV augment,HSV augment primary fold,RGS16-Gao HTS,INS promoter inh,INS promoter inh cell count,PKD1 inh,GALR2 agonist
CCn1c(=N)n(CCO)c2ccccc21,i,0.74,101.5,.,.,-8.8,-0.9
Fc1ccc(NC(=S)N2CCCCC2)cc1,i,0.91,107.5,38.9,76.6,-1.1,-0.9
CSc1cccc(NC(=O)c2cnccn2)c1,i,1.01,112.8,-62.9,126.2,4.4,-3.0
Cc1cccc(C)c1OCCCCCNCCO,i,0.85,105.2,51.6,65.8,4.6,-1.0
O=C(NC(=S)Nc1ccccc1F)c1ccc(Br)o1,i,1.08,90.2,-29.4,92.7,-3.5,.
NC(=O)c1cc(-c2ccccc2)nc2ccc(Br)cc12,i,0.84,108.6,.,.,.,.
Cc1ccc(OCc2nc(-c3ccccn3)no2)c(Br)c1,i,0.89,101.1,11.1,92.8,-19.0,-2.3
O=C(N/N=C/c1ccccc1C(=O)O)C(=O)N1CCCCC1,i,1.09,105.9,7.0,89.4,1.3,.
CC(O)c1ccc2c(c1)OCCOCCN(C)CCOCCO2 (centres undefined),i,0.96,99.5,.,.,-9.7,0.1
Cc1ccc(-c2cc(C(=O)Nc3nccs3)c3ccccc3n2)o1,i,0.91,99.1,-3.5,110.1,-0.7,-0.1
Cc1ccc(NC(=O)C2CCCN(S(=O)(=O)c3cnc[nH]3)C2)cc1F (centres undefined),i,0.94,182.0,.,.,-1.5,-1.6
Cc1ccc(C(=O)N/C(=C\c2cccs2)C(=O)N2CCCCCC2)cc1,i,0.91,102.1,16.2,113.6,0.2,0.7
O=C(NC(=S)N(CCCCO)C1CCCCC1)c1sc2ccccc2c1Cl,i,0.95,82.6,.,.,-17.6,-0.4
CCc1ccc(CN(C)C(=O)c2cc(COc3c(F)cccc3F)on2)cc1,i,0.91,99.2,.,.,-0.8,.
CCN(CCn1cccn1)C(=O)CCc1nnc(CCc2ccccc2OC)o1,i,0.9,99.5,.,.,-6.7,.
O=C1N(Cc2ccc3c(c2)OCO3)c2ccccc2C1(O)c1c[nH]c2ccccc12 (centres undefined),.,.,97.4,0.0,78.1,6.9,-2.3
COc1ccc(C2C(Oc3ccccc3C)C(=O)N2Cc2ccc(F)cc2)cc1OC (centres undefined),i,1.06,101.8,-42.9,130.3,-9.0,-1.4
CC1CCN(S(=O)(=O)c2ccc3c(c2)N(CC(=O)NCc2cccnc2)C(=O)CS3)CC1,i,1.09,44.9,-128.6,55.4,-6.5,-1.6
COCCNC(=O)CCCn1c(=O)c2cc(OC)c(OC)cc2n(CC(=O)Nc2ccccc2OC)c1=O,i,0.93,96.6,.,.,-4.0,.
